gsp ag – activates gsp, the McCune-Albright syndrome mutation; gsp mutant cells, cAMP HTRF, 30 min; control for the full effect not named in the record; Potency, µM (highest dose often 76.9 µM), without a hit: top-dose activation (cAMP increase), most hits filed as activators; hit rate 0.13% among 340,000; active = well fitted activation curve with a large enough effect; inconclusive = small, poorly fitted or top-dose-only effect, or another doubt; inactive = no such curve, though single readings can be large or run the other way; cell line not stated here;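 further: phosphodiesterase inhibitor Ro 20-1724 added with compounds to block cAMP breakdown; potency means the concentration at half of the fitted maximal effect; nearly all actives have a fitted effect of over 60% in size; about a fifth of the inactives were tested at one dose only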
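Cells in DMEM/10% FBS with G418 were pretreated with compounds in DMSO plus […] (300 uM stock) for 30 min at 37C. cAMP was measured by HTRF (cAMP-d2 plus anti-cAMP antibody-K) after 30 min at room temperature.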
gsp antagonist – antagonists of gsp mutant (McCune-Albright syndrome); gsp-mutant cells, cAMP HTRF, 30 min; control for the full effect not named in the record; Potency, µM (doses to about 76.9 µM), inactives show top-dose activity change, negative = inhibition, actives largely listed as inhibitors; hit rate 0.4% among 340,000; AID 624288; active = falling curve of any shape with a large fitted effect; inconclusive = falling curve, mostly with a smaller effect; inactive = flat or rising curve; cell line not stated here;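 further: intracellular cAMP measured with PDE inhibitor Ro 20-1724 present during compound exposure; potency means the concentration at half of the fitted maximal effect; on the % scale 0 is the no-effect control and ±100 the full control effect; nearly all actives have a fitted effect of over 65% in size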
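G418-selected cells were plated in DMEM/10% FBS for 16-24 h at 37C, then treated with compounds plus the PDE inhibitor […] (300 uM solution added) for 30 min at 37C. Intracellular cAMP was measured by HTRF after 30 min lysis at room temperature.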
ClpP mod – qHTS Assay for Activators of ClpP; AID 651965, 2013; purified B. subtilis ClpP, FRET peptide cleavage, 20 min; Potency, µM (highest dose often 57.5 µM), for the others: top-dose activity change, negative = active; hit rate 1.9% among 340,000; active = well fitted falling curve with a large enough effect; inconclusive = small, poorly fitted or top-dose-only effect; inactive = no such curve, though single readings can be large or run the other way; further: potency means the concentration at half of the fitted maximal effect; the source files actives as falling curves though it sought activators and does not explain the sign; nearly all actives have a fitted effect of over 65% in size; many hits overshoot -100%
Target sequence (P80244 whole entry, looked up): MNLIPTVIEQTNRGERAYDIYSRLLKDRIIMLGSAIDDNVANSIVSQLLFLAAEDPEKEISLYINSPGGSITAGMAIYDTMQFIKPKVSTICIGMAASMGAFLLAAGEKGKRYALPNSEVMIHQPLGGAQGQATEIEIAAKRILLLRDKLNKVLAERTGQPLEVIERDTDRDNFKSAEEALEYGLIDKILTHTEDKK
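Purified B. subtilis ClpP, 10 microg/mL final in Tris/HCl pH8 with KCl, BSA, glycerol and Tween-20, cleaved an Abz/nitrotyrosine-quenched decapeptide. Fluorescence (ex 320, em 430) was read at 0 and 20 min at room temperature. Delta was normalized to 5.8 microM ADEP and DMSO/no-enzyme controls.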
D2 potentiator – human D2 receptor positive allosteric modulation; hit rate 0.23% among 360,000; DiscoveRx D2 beta-arrestin cells, luminescence, 90 min; 100% = 57 uM dopamine signal; P14416; potentiation, % (no concentration beside the values); AID 624464; active = potentiation of 50% or more; inconclusive = 30% to 50%; inactive = 30% or less;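 further: compound concentration not given in the record; tested on top of an EC20 dose of dopamine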
Target sequence (P14416 whole entry, looked up): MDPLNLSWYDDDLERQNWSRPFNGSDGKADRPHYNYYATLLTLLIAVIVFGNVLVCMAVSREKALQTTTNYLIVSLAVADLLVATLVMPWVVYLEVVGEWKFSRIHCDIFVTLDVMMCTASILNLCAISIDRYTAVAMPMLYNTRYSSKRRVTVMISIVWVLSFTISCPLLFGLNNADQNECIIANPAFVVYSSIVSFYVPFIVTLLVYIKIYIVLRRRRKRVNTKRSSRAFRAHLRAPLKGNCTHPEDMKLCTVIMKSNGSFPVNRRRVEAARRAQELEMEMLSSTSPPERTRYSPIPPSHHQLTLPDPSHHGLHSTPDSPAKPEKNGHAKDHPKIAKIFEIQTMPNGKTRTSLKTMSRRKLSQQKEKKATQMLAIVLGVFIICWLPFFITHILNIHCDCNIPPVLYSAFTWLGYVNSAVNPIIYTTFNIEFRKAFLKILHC
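D2 cells co-treated with compound plus 50 nM dopamine (EC20) for 90 min at 37 deg C to detect potentiation. Beta-arrestin recruitment was read as enzyme-fragment luminescence after 1 h at ambient temperature. Full response was set by 57 uM dopamine.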
Sfp inh – blocks B. subtilis Sfp PPTase activity; Biochemical Sfp PPTase activity, qHTS; Q9F4F7; Potency, µM, for inactives: max response, negative = inhibition, usual class: inhibitors; hit rate 3.5% among 310,000; active means well fitted inhibition curve with a large enough effect; inconclusive means small, poorly fitted or top-dose-only effect, or another doubt; inactive means no such curve, though single readings can be large or run the other way;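 further: the enzyme is Sfp with the accession as filed and its product quenches rhodamine fluorescence; potency means the concentration at half of the fitted maximal effect; 0% = enzyme reaction without inhibitor and -100% = no enzyme wells; top concentration of the series not given in the record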
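Sfp 15 nM + cpd, 15 min RT; start w/ rhodamine-CoA 5 uM, BHQ-2-YbbR 12.5 uM (final); 50 mM Hepes pH 7.6, 10 mM MgCl2, 0.01% NP-40, 0.01% BSA; read 525/598 nm at 0 and 30 min.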
TRPV1 PAM – potentiators of human vanilloid receptor 1 (TRPV1); Q8NER1; hit rate 0.02% among 320,000; TRPV1-expressing cells, Fluo-8 calcium influx, capsaicin EC20 potentiation; host cell line not named in the record; control for the full effect not named in the record; potentiation, % at 8.33 µM; active means potentiation above 80%; inconclusive means 30% to 80%; inactive means below 30%; further: 0% is about no effect
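Cells expressing TRPV1 were dye-loaded with Fluo-8 and read kinetically: 10 s baseline, 3 min after compound (agonist portion), then 2 min after EC20 capsaicin (allosteric enhancer portion). Calcium-bound dye fluorescence at 480/520 nm.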
Menin-MLL FL inh – menin-MLL binding inhibition, fluorescein peptide; Fluorescence polarization, fluorescein-MLL peptide displacement from menin; FP activity change, % at 61.4 µM; 290,000 tested, under 10 active; inconclusive = falling polarisation curve, or a change in total fluorescence; inactive = total fluorescence flat and polarisation flat or rising; no compound was filed as active; the % refers to the polarisation; negative = inhibition;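 further: % of control where 0% means no effect; inhibitors lower the polarisation; unlabelled MLL peptide was the positive control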
* marks the source's active call; other numbers are inactive results; u = inconclusive; x = not tested or not shown; & = joins results of further samples; [ ] = remark or other dose.

compound	gsp ag	gsp antagonist	ClpP mod	D2 potentiator	Sfp inh	TRPV1 PAM	Menin-MLL FL inh
Cc1nc(-c2ccc(NC(=O)c3ccco3)cc2)cs1	2%	-5%	-1.4%	-8	5%	13	4.6
C[C@H]1CN([C@@H](C)CO)C(=O)c2cc(-c3cccc(F)c3)cnc2O[C@H]1CN(C)C(=O)c1cnccn1	u	x	-4.5%	-3	x	x	x
CC(C)c1nc(CNC(=O)c2cc(COc3c(F)cccc3F)on2)cs1	15%[15.4 µM]	-4%	x	-1	3%	-3	1.1
CSc1nc(C(=O)N2CCc3c([nH]c4ccccc34)C2c2ccccn2)cs1 (stereo not given)	-9%[15.4 µM]	-19%	x	-9	-21%	0	2.4
O=C(Cn1cnc([N+](=O)[O-])n1)N/N=C/c1cc(Cl)ccc1O	-2%[15.4 µM]	16%	x	9	21%	11	-1.4
COc1ccc(Cl)cc1S(=O)(=O)N1CCC(C(=O)NCCc2ccccc2)CC1	-80%[inhibitor]	-19%	x	-5	12%	-8	4.5
COc1ccc2oc(C(=O)OCC(=O)Nc3ccc(C(=O)N(C)C)cc3)c(C)c2c1	-8%	5%	3.9%	-7	3%	-15	0.3
COC(=O)c1cc(Nc2cc(C)c3ccc(O)cc3n2)cc(C(=O)OC)c1	1%[15.4 µM]	-9%	x	-1	1%	-1	4.9
O=C(NCCc1ccccc1)C(=O)NC1CCCCC1	-40%[inhibitor]	1%	0.7%	-1	23%	-1	0.4
CC1CC(C)CN(C(=O)COC(=O)c2ccc(Cl)nc2)C1 (stereo not given)	-4%[15.4 µM]	5%	x	1	x	3	x
O=C(O)c1ccccc1C(=O)NNc1ccc(Cl)cc1Cl	-18%	-9%	-3.3%	-2	14%	5	1.9
Cc1cc(Nc2cccc([N+](=O)[O-])c2)c2cccc(C)c2n1	-1%	-9%	x	-12	18%	-6	-0.1
O=C(N1CCCCCC1)N1CCN(S(=O)(=O)c2ccccc2)CC1	28%	3%	-0.5%	-2	17%	-9	0.4
COc1ccccc1-c1nc2ccccc2c(=O)n1O	26%[15.4 µM]	0%	-16%	-4	-19%	-4	-6.7
COC(=O)C(O)(NC(=O)OCc1ccccc1)C(F)(F)F (stereo not given)	0%	18%	-4.0%	6	11%	5	-0.5

compound	gsp ag	gsp antagonist	ClpP mod	D2 potentiator	Sfp inh	TRPV1 PAM	Menin-MLL FL inh
Cc1cc(C)cc(CC2CC(=O)N(c3ccc(Cl)cn3)C2=O)c1 (stereo not given)	-12%	-8%	1.2%	0	8%	-24	2.7
CCOC(=O)c1c(NC(=S)NCc2ccccc2)sc2c1CCN(C(=O)OCC)C2	u	24%	x	-4	-8%	1	0.6
CC(C)(C)c1csc(NC(=O)c2cccnc2Cl)n1	1%[15.4 µM]	-10%	0.2%	-3	x	x	x
COc1cccc(NC(=O)C2C3C=CC4(O3)C2C(=O)N(CCCN2CCCC(C)C2)C4C(=O)NC2CCCCC2C)c1 (stereo not given)	14%[15.4 µM]	4%	x	-10	12%	2	-3.0
CCCCNC(=O)C1C2C=CC(C2)C1C(=O)O (stereo not given)	-4%	12%	-1.1%	-5	-6%	-17	x
CCn1cc([N+](=O)[O-])c(C(=O)N2CCCc3ccccc32)n1	-18%	10%	-2.4%	-11	6%	12	-8.7
COc1ccccc1N1C(=O)C2C(C(=O)c3ccccc3)=NN(c3ccc(Br)cc3)C2C1=O (stereo not given)	-5%	-3%	x	-1	2%	15	u
COc1cc2c(cc1OC)C1(C)N(CC2)C(C(C)=O)=NN1c1ccc(Cl)cc1 (stereo not given)	-6%	-15%	16%	-14	u	-2	u
O=C1CCCC2(O)C1C(c1cccc(Br)c1)NC(=O)N2Cc1ccccc1 (stereo not given)	-77%[inhibitor]	6%	0.4%	3	u	-13	-28
Cc1ccc(CN2CCCNC2=O)cc1	-1%	2%	-2.9%	-4	16%	0	-3.1
O=C(NC1CCSC1=O)c1ccc(Cl)cc1 (stereo not given)	-13%	1%	1.0%	-4	0%	-5	2.9
Cc1ccc(N2CC(C(=O)Nc3nccs3)CC2=O)cc1Cl (stereo not given)	u	8%	1.0%	3	12%	-16	-0.6
N#C/C(=C\c1ccc(-c2ccccc2[N+](=O)[O-])o1)C(=O)N1CCOCC1	18%	11%	-3.7%	-23	12%	-6	4.9
COc1ccccc1CNC(=O)CN1CCC(NC(=O)c2ccccc2F)CC1	-23%	1%	-0.4%	-2	-4%	1	6.4
CCOC(=O)c1ccc(NC(=O)CSc2nc(N3CCOCC3)nc(N3CCOCC3)n2)cc1	1%	-17%	1.8%	-8	-15%	4	2.9

compound	gsp ag	gsp antagonist	ClpP mod	D2 potentiator	Sfp inh	TRPV1 PAM	Menin-MLL FL inh
COc1ccc(NC(=O)COC(=O)CCNS(=O)(=O)c2ccccc2)cc1OC	-25%	6%	x	-4	11%	2	-0.4
COc1ccccc1C(=O)COC(=O)CN1C(=O)c2ccccc2C1=O	8%	-2%	2.2%	-6	3%	4	x
COc1ccc(-n2c(=O)c3ccccc3n(CC(=O)NC3CCCCC3)c2=O)c(OC)c1	-69%[inhibitor]	-3%	1.4%	3	18%	-13	1.7
CCN(CC(=O)Nc1ccc(NC(C)=O)cc1)C(=O)C1CCCN(C(=O)c2ccc(Cl)cc2)C1 (stereo not given)	30%	15%	-0.6%	-3	x	3	x
O=C(COC(=O)c1cc[n+]([O-])cc1)Nc1ccc([N+](=O)[O-])cc1	4%[15.4 µM]	x	x	6	17%	1	-1.8
CCCNC(=O)c1c(CSc2ccccc2)noc1C(=O)NCc1ccccc1	-14%	-9%	-2.1%	-4	-11%	u	2.3
O=Cc1c[nH]c2ccc(NC(=O)OCc3ccccc3)cc12	-25%	7%	x	-2	x	x	x
COc1ccccc1CCNC(=O)CCNS(=O)(=O)c1ccc(NC(C)=O)cc1	-37%[inhibitor]	-2%	1.9%	-5	x	4	x
CCN(CCn1cccn1)C(=O)c1ccc(OC2CCN(C(=O)COC)CC2)cc1	-5%	4%	1.1%	-22	11%	0	1.4
O=C(CCC(=O)Nc1ccc(Cl)cc1Cl)N/N=C/c1ccc([N+](=O)[O-])o1	21%	-9%	x	1	16%	8	-4.7
CCC(C)(C)C1CCc2[nH]nc(C(=O)NCCCNC(=O)OC(C)(C)C)c2C1 (stereo not given)	u	4%	1.6%	-19	x	-34	x
Cn1ccnc1C(=O)c1cc(SCC(=O)N2CCOCC2)nc2ccccc12	7%[15.4 µM]	1%	x	-10	20%	4	-3.3
COc1ccc(OC)c(/C=N/NC(=O)c2ccc[n+](CC(=O)c3ccccc3)c2)c1	-9%	4%	9.5%	-12	x	-2	x
O=C(CSc1nnc(Cc2ccccc2)o1)NCCN1C(=O)CSC1=O	19%	-1%	-0.9%	12	5%	0	2.6
CC(=O)c1cccc(N(CC(=O)Nc2ccc(F)cc2F)S(C)(=O)=O)c1	-57%[inhibitor]	11%	0.2%	-13	1%	9	0.0

compound	gsp ag	gsp antagonist	ClpP mod	D2 potentiator	Sfp inh	TRPV1 PAM	Menin-MLL FL inh
O=C(NC(=S)NN1CCCCC1c1cccnc1)c1ccc(Br)cc1 (stereo not given)	-5%[15.4 µM]	-32%	3.2%	-7	-11%	1	2.9
COc1cccc(C(=O)N(Cc2cc3cc(C)ccc3[nH]c2=O)C(C)C)c1	27%	-5%	u	4	-6%	7	1.1
O=C(Oc1cccc2ccccc12)c1ccncc1	-11%	5%	27%	2	5%	0	-1.9
c1ccc2c(SCc3cn4cccnc4n3)ncnc2c1	22%	8%	u	-4	-5%	1	0.6
COC(=O)[C@H](CC(C)C)NC(=O)N1CCN(c2cccc(C(F)(F)F)c2)CC1	3%	-5%	-1.3%	-11	10%	-10	5.0
Cc1cc(C)c(NC(=O)Cn2nnc(C(=O)Nc3ccc(F)cc3F)c2N)c(C)c1	-4%	15%	-0.8%&-1.3%	-2	-3%	-10	-0.3
COc1ccc(S(=O)(=O)NCC2CCCN(Cc3ccccc3C)C2)cc1 (stereo not given)	0%	7%	-0.2%	-4	9%	-7	30
N#CC1=C2CCCCC2(O)NC1=O (stereo not given)	17%	x	-0.9%	-1	x	x	x
CCOC(=O)/C=C1\SCC(=O)N1CC(=O)NCCOC	19%	10%	x	3	4%	30	-6.6
Oc1ccccc1C=Nc1cccc2ccccc12	13%	9%	4.3%	27	1%	14	-0.2
CC(=O)c1cccc(OCc2cc(C(=O)N(C)Cc3ccc(C)o3)no2)c1	-40%[inhibitor]	1%	2.4%	-1	25µM*	-1	4.4
Cc1cc(C)n(-c2ccc(NC(=O)C3CCCCN3C(=O)c3ccoc3C)cc2)n1 (stereo not given)	-43%[inhibitor]	10%	-2.3%	2	8%	18	x
Nc1cc(=O)nc(SCC(=O)N2CCN(c3ccccc3)CC2)n1-c1ccc(F)cc1	24%	-11%	0.1%	-6	5%	4	5.4
CC(C)c1ccc(S(=O)(=O)N2CCN(C(=O)C3=COCCO3)CC2)cc1	-27%	5%	-1.7%	-4	x	x	x
COCCNC(=O)C1CCCN(S(=O)(=O)c2cccc3nsnc23)C1 (stereo not given)	-25%	-4%	x	-3	16%	u	-9.5

compound	gsp ag	gsp antagonist	ClpP mod	D2 potentiator	Sfp inh	TRPV1 PAM	Menin-MLL FL inh
CC(=O)c1cccc(NC(=O)CCNS(=O)(=O)c2cccc(C(C)=O)c2)c1	-26%	9%	0.9%	-12	1%	2	-0.6
C=CCn1c(COc2cccc3ccc(C)nc23)nnc1SCC(=O)O	18%	3%	35µM*	-8	-11%	-20	1.3
COc1cc(Br)c(CCNC(=O)Cc2ccccc2)cc1OC	1%	6%	0.8%	-21	13%	-11	2.9
O=C(CSC(=S)N1CCOCC1)c1cc2ccccc2oc1=O	u	-22%	-3.8%	-9	-4%	4	9.0
Cc1cc(O)cc2c1C(=O)/C(=C/c1ccco1)O2	12%	u	x	1	-10%	8	u

From PubChem BioAssay
